Ab BasE inh = blocks the Acinetobacter baumannii siderophore enzyme BasE; 0.1% of 84,000 active; purified BasE, fluorescence polarization binding displacement; inhibition, % (concentration not given with the values);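 active = both replicates above 25% with normal brightness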;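 also: 0% = negative plate control signal and 100% = positive plate control signal; stock transfer was 100 nL into about 30 µL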
KSHV LANA nucl = inhibitors of KSHV LANA binding to nucleosomes. FITC-LANA1-23 / chicken nucleosome fluorescence polarization; hits give low values. z-score (concentration not given with the values). 0.3% of 51,000 active;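 active = both repeat wells score below -2 in polarization z-score versus plate sample wells, excluding overly bright wells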;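 also: 100 nL library stock added to about 30 µL; numbers are from one replicate; some results filed as inactive read as strong as hits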
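System – purified chicken nucleosomes with FITC-labelled LANA N-terminal peptide (1-23) · Amount – 240 nM purified chicken nucleosomes (480 nM peptide binding sites), final · Also added – 50 nM FITC-LANA1-23 probe · Medium – TEN-BT buffer, pH 7.5 · Incubation – compound with peptide–nucleosome mix 10–45 min at room temperature · Detection – fluorescence polarization, ex 480 nm, em 535 nm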
* marks the source's active call; other numbers are inactive results; · = not tested or not shown; & = joins results of further samples. This is a subset. The share of hits here may be higher or lower than overall.

SMILES	Ab BasE inh	KSHV LANA nucl
CCN(C(=O)CCCN1C(=O)/C(=C\c2cccs2)SC1=S)C1CCS(=O)(=O)C1 (configuration not stated)	0.4	-0.83
Cc1onc(-c2ccccc2)c1CNS(=O)(=O)c1cccc(Cl)c1	-0.4	·
O=S1(=O)CCN2C(=N1)OC(c1ccccc1)=C2c1ccccc1	2.5	·
O=C(c1ccccc1F)N(Cc1ccco1)c1ccc(O)cc1	0.4	0.865
COC(=O)c1ccc2c(c1)S(=O)(=O)NC(=NCc1ccco1)S2	-0.2	·
OCC1c2ccccc2-c2ccccc21	2.8	·
CNC(=O)CSc1nnc(NC2CCCCC2)s1	-1.5	·
O=C(c1cc(-c2ccc(Cl)cc2)on1)N1CCCC1	0.1	0.896
O=C(/N=C1/NC(=O)C(F)(C(F)(F)F)S1)NC1CCCCC1 (configuration not stated)	-5.2	0.658
Cc1cc(C)c2[nH]c(=O)c(C(c3nnnn3CC3CCCO3)N3CCN(c4ccccc4F)CC3)cc2c1 (configuration not stated)	1.9	0.121
CN(C)S(=O)(=O)c1ccc(=S)[nH]c1	0.2	·
C=C(C)Cn1c(C(O)c2ccccc2)nc2ccccc21 (configuration not stated)	0.8	0.459
Cc1cc(NN)nc2ccc(Cl)cc12	2.9	·
COC(=O)CSc1ccccc1C(=O)OC	-1.5	0.483
Cc1cc2c(=O)n(CC(=O)O)cnc2s1	0.7	-0.997
O=C(O)C1CCCCC1C(=O)N1CCN(C(c2ccccc2)c2ccccc2)CC1 (configuration not stated)	2.2	·
CCOC(=O)c1cc(=O)n(C)c2c1c(=O)oc1ccccc12	-4.2	1.65
CCCCc1c(C)nc(-c2ccc(Cl)cc2)[nH]c1=O	2.5	·
Nc1cccc(-c2cn3ccccc3n2)c1	1.8	1.18
COc1ccc(-c2cc(CCCC(=O)NCCc3ccc(OC)cc3OC)no2)cc1	-1.6	-0.225
CCCOc1ccc(Br)cc1/C=C1\NC(=S)NC1=O	-11.9	·
Cn1cnnc1SCC(=O)Nc1sc2c(c1C#N)CCC2	2.6	0.185
CCOc1ccc(CCNC(=O)c2nc(-c3cccnc3)no2)cc1	1.3	-0.457
Cc1nn(CCC(=O)N2CCc3ccccc32)c(C)c1S(=O)(=O)N1CCCC1	-1.1	1.4
Cn1c(SCC(=O)c2ccccc2)nc2ccccc2c1=O	0.2	-1.06

Additional results:
SMILES	Ab BasE inh	KSHV LANA nucl
c1ccc(CCn2c(C3CCCO3)nc3ccccc32)cc1 (configuration not stated)	0.4	-0.204
CC(C(=O)N(C)C)N(c1cccc(Cl)c1)S(C)(=O)=O (configuration not stated)	0.2	0.743
CCc1ccc(NC2CC(=O)NC2=O)cc1 (configuration not stated)	-2.0	-0.398
CC(C)C(NC(=O)c1ccc(F)cc1)C(C)C	0.8	-1.44
CN1C(=O)Cc2c1nc(N)c1c(N)nc(N3CCN(C(=O)c4ccco4)CC3)c(C#N)c21	-1.9	·
COc1cccc2c1OC(C(C)C)N1N=C(c3cc(C)ccc3O)CC21 (configuration not stated)	-1.3	0.356
O=C(O)CC(C(=O)O)c1ccc(Cl)cc1Cl (configuration not stated)	0.5	-0.241
CCOC(=O)c1c(NC(=O)c2cc(-c3cccc(OC)c3)on2)sc(C)c1C	2.1	-0.113
Cc1cc(Nc2ccc(O)cc2)c2cc(Cl)ccc2n1	5.5	-0.218
Cn1c(=O)c(C(N)=S)cn(-c2ccccc2)c1=O	-2.1	·
COc1ccc(CCN(C)Cn2ncn(C)c2=S)cc1OC	-3.6	·
Cc1ccc(-c2noc(C3CCCN(C(=O)c4ccccc4)C3)n2)o1 (configuration not stated)	0.9	0.0945
COc1ccc(C(c2ccccc2)N2CCNCC2)cc1 (configuration not stated)	-3.4	0.0175
Cc1ccc(S(=O)(=O)NC2=NCN(CC3CCCO3)CN2)cc1 (configuration not stated)	0.6	-0.318
Cc1nc2ncnn2c(C)c1CCC(=O)N(Cc1cccnc1)c1ccc2c(c1)OCO2	12.5	·
C=C1C2(C(=O)Nc3ccccc3OC)CCC(C2)C1(C)C (configuration not stated)	-1.1	0.924
CCCC(c1nnnn1Cc1ccccc1)N1CCN(c2ccccc2)CC1 (configuration not stated)	0.4	0.429
C/C(=N\NC(N)N)C1CCCCCCCCCCC1	-2.1	2.18
CC1=CC(c2ccc(Cl)cc2)n2nc(N3C(=O)c4ccccc4C3=O)nc2N1 (configuration not stated)	0.2	-0.613
CCOc1ccc(S(=O)(=O)Nc2ccc(S(=O)(=O)N3CCOCC3)cc2)cc1	1.7	-0.185
O=C(COc1ccccc1)Nc1ccccc1N1CCN(c2ccccc2)CC1	0.3	-1.35
Cc1cc(=O)[nH]c(SCC(=O)N2CCNC2=O)c1C#N	1.8	·
O=C(CNC(=O)c1ccc(-c2ccccc2)cc1)OCc1nnc(-c2ccccc2)o1	-1.9	·
Cc1cc(N)c2ncccc2c1	3.4	0.0965
CC(C)CNC(=O)c1ccccc1NC(=O)c1ccco1	-0.7	2.06

Further entries
SMILES	Ab BasE inh	KSHV LANA nucl
Cc1ccccc1-c1nc(C#N)c(N2CCN(c3ccccc3)CC2)o1	0.3	-1.01
COc1ccc(C2=C[N+](=O)C(C)(C)C(C)(C)N2[O-])cc1	1.3	-0.724
CCOc1ccc(N=C=S)cc1	1.4	·
CCC1=C(c2ccc(C)cc2)S(=O)(=O)NC1=NCC(=O)O	1.8	0.117
Oc1ccc(-c2ccc(I)cc2)cc1	2.8	·
Cc1noc(C)c1Cc1c(Cl)cccc1Cl	·	0.107
CC(=O)OC1=C(C)C(c2ccccc2)N(C(C)=O)C(c2ccccc2)C1C (configuration not stated)	4.5	0.242
COC(=O)COc1ccc(S(=O)(=O)N2CCN(c3cc(Cl)ccc3C)CC2)cc1	0.0	0.094
O=C(NCCN1CCOCC1)N(c1ccccc1)c1ccccc1	3.6	-0.19
O=C(CSC1=NCCS1)Nc1nc(-c2ccc(Cl)cc2)cs1	-1.7	·
COc1ccc(C(=O)Nc2cccc3ncccc23)cc1OC	-0.6	·
CC1=NN(C(=O)c2cccnc2)C(O)(c2ccccc2)C1 (configuration not stated)	-0.5	-0.089
CCc1nnc(SCCSc2nnc(CC)n2N)n1N	-4.2	2.14
O=C1NC(=O)C2(CCc3ccccc32)N1 (configuration not stated)	1.0	·
CN(C)c1cc(-c2ccccc2)nc(-c2ccccc2)n1	4.5	-0.34
CSc1nc(CSc2ccc(C)cc2)nc(N)c1C#N	0.5	-0.912
CC[N+]1(Cc2ccccc2)C2=C(CN(C)CC2)c2ccccc21 (configuration not stated)	-1.4	·
CSC1=NC=C(C#N)C2=NC(C)(c3ccc(Cl)c(Cl)c3)NN12 (configuration not stated)	3.1	0.032
CN1CCC(=NNC(=O)c2ccc(CN3C(=O)c4cccc5cccc3c45)cc2)CC1	-6.8	·
CC1CCCN(CCCNS(=O)(=O)c2csc(C(N)=O)c2)C1 (configuration not stated)	-0.8	-0.359
CCN(CC)S(=O)(=O)c1ccc2c(c1)oc(=O)c1cc(S(=O)(=O)N(CC)CC)ccc12	-1.7	0.106
Cn1ccnc1SCC(=O)N1c2ccccc2C(C)(c2ccc(Cl)cc2)CC1(C)C (configuration not stated)	3.6	·
OC(CN1CCN(c2ccccc2F)CC1)c1ccc2[nH]ccc2c1 (configuration not stated)	0.2	0.061
CCN1C(=O)c2ccc(C(=O)Nc3ccc(OC)cc3)cc2C1=O	-4.2	1.79
CC(C)c1cccc(C(C)C)c1NC(=O)CCCN1C(=O)NC2(CCCC2)C1=O	-1.5	·

(listing goes on)
SMILES	Ab BasE inh	KSHV LANA nucl
Cc1ccccc1Nc1nc(N)nc(COC(=O)CC2Sc3ccccc3NC2=O)n1 (configuration not stated)	-1.1	·
CCOC(=O)c1cnc(SC2CC(=O)N(c3ccccc3)C2=O)nc1N (configuration not stated)	-0.1	0.571
O=C(OCCOCCO)c1ccccc1Nc1cccc(C(F)(F)F)c1	-1.8	0.143
Cc1ccc(/C=N/NC(=O)CSc2nc3ccccc3n2Cc2ccccc2)o1	1.2	-0.756
O=C(NCc1ccco1)c1ccc2c(c1)C(=O)N(Cc1ccccc1)C2=O	3.5	0.685
CC(C)c1ccc(-n2c(CCC(=O)O)ccc2-c2cccs2)cc1	-2.1	0.277
CCN(CC)S(=O)(=O)c1ccc(NC(=O)COc2ccc3c(C)cc(=O)oc3c2)cc1	1.6	·
O=C(CC(C(=O)N1CCc2ccccc21)C(=O)N1CCc2ccccc21)c1ccccc1	-1.4	·
O=C1NC(=Nc2cccc(C(=O)O)c2)S/C1=C/c1ccc(-c2ccc(C(=O)O)cc2)o1	-17.5	·
O=c1oc2ccccc2nc1/C=C(\O)c1ccccc1	-2.5	·
CC1CCc2cc(F)ccc2N1C(=O)C12CCC(c3nc(C#N)c(C#N)nc31)C2(C)C (configuration not stated)	1.8	-1.31
O/N=C/c1cc2ccccc2nc1Cl	3.4	·
Cc1nn(C2CCS(=O)(=O)C2)c(Cl)c1CNCCCn1ccnc1 (configuration not stated)	-1.6	·
O=C(Cn1nnc(-c2cccc(C(F)(F)F)c2)n1)NC(=O)NC1CCCC1	-0.4	·
CCOC(=O)c1ccc(-c2ccc(/C=C(/C#N)C(=O)Nc3ccc(C)cc3C)o2)cc1	-1.0	0.546
Cc1c(C(=O)OCC(N)=O)sc2nc(-c3cccs3)cc(C(F)(F)F)c12	0.6	·
O=C(NC1CCSc2ccccc21)C1CCN(S(=O)(=O)c2ccccc2)CC1 (configuration not stated)	2.4	·
CCN(CC)C(=S)SCc1ncc(-c2ccccc2)o1	-0.2	·
Fc1cccc(NCc2cccn2-c2nnc(N3CCCC3)s2)c1	1.5	·
CC1(C)Cc2ccccc2C(NNC(N)=O)=N1	0.3	-0.461
CNC(=S)N1CCNC(=O)C1CC(=O)Nc1cc(Cl)ccc1C (configuration not stated)	2.3	-0.048
CCC(C)NC(=S)NC1CCCCC1 (configuration not stated)	-3.6	1.25
C=CCNC(=O)Nc1c[nH]c2ccc(F)cc2c1=O	3.0	-1.2
CCOc1ccc(CC2c3cc(OCC)c(OCC)cc3CCN2C(=O)COC(=O)c2cnccn2)cc1OCC (configuration not stated)	-1.1	·
Cc1ccc(NC(=O)CN(C)CC(=O)Nc2ccccc2)cc1	1.5	·

More results follow:
SMILES	Ab BasE inh	KSHV LANA nucl
COc1ccc(N2CCN(CCCNCc3c(C(=O)O)n(C)c4ccccc34)CC2)cc1	0.1	3.71
COc1ccc(NC(=O)NC2CC2)c(OC)c1	0.5	0.114
COc1cc2c(cc1OC)C(CC(=O)O)NCC2 (configuration not stated)	0.1	·
C[C@H]1CC2C([C@@H](O)C[C@@]3(C)C2CC[C@]3(O)C(=O)COC(=O)CCC(=O)O)[C@@]2(C)C=CC(=O)C=C12 (some centres not stated)	·	1.32
O=C(CCN1C(=O)c2ccccc2S1(=O)=O)N1CCOCC1	1.0	-0.31
CCNCC(=O)NCc1cccs1	1.4	·
Cc1ccc(NC(=O)CNCCCN2CCOCC2)cc1Br	1.6	-0.32
COC(=O)C1C(=O)CC(=O)CC1c1ccc(OC)cc1 (configuration not stated)	-0.5	-0.202
Cc1nc2c(C#N)c(-c3ccc(Cl)cc3)ccn2n1	·	-1.06
CC1SCC(=O)N(c2cc(Cl)ccc2Cl)C1=O (configuration not stated)	·	-0.489
Cc1nnc(SCC(=O)Nc2ccc3c(c2)OCCO3)n1N	-0.6	·
O=C(NCCC(c1ccccc1)c1ccco1)c1cccs1 (configuration not stated)	-4.4	0.05
Cc1nc2ccccc2nc1OCC(=O)Nc1ccccc1	1.8	·
CC(C)COc1cccc(C(=O)O)c1	-1.0	·
CCOc1ccc(NC(=O)c2ccc(-c3ccccc3F)o2)cc1	1.0	0.797
C=CCN(C)NC(=S)Nc1ccccc1	2.6	0.332
COc1ccc(CC(=S)N2CCOCC2)cc1	0.4	0.0945
CCn1nc(C(=O)O)c(=O)c2cc3c(cc21)OCO3	-2.0&-0.9	-0.164&0.066&-0.732

Compounds shown so far that have an aryl methoxy group:
SMILES	Ab BasE inh	KSHV LANA nucl
COc1ccc(-c2cc(CCCC(=O)NCCc3ccc(OC)cc3OC)no2)cc1	-1.6	-0.225
COc1cccc2c1OC(C(C)C)N1N=C(c3cc(C)ccc3O)CC21 (configuration not stated)	-1.3	0.356
CCOC(=O)c1c(NC(=O)c2cc(-c3cccc(OC)c3)on2)sc(C)c1C	2.1	-0.113
COc1ccc(CCN(C)Cn2ncn(C)c2=S)cc1OC	-3.6	·
COc1ccc(C(c2ccccc2)N2CCNCC2)cc1 (configuration not stated)	-3.4	0.0175
C=C1C2(C(=O)Nc3ccccc3OC)CCC(C2)C1(C)C (configuration not stated)	-1.1	0.924
COc1ccc(C2=C[N+](=O)C(C)(C)C(C)(C)N2[O-])cc1	1.3	-0.724
COc1ccc(C(=O)Nc2cccc3ncccc23)cc1OC	-0.6	·
CCN1C(=O)c2ccc(C(=O)Nc3ccc(OC)cc3)cc2C1=O	-4.2	1.79
COc1ccc(N2CCN(CCCNCc3c(C(=O)O)n(C)c4ccccc34)CC2)cc1	0.1	3.71
COc1ccc(NC(=O)NC2CC2)c(OC)c1	0.5	0.114
COc1cc2c(cc1OC)C(CC(=O)O)NCC2 (configuration not stated)	0.1	·
COC(=O)C1C(=O)CC(=O)CC1c1ccc(OC)cc1 (configuration not stated)	-0.5	-0.202
COc1ccc(CC(=S)N2CCOCC2)cc1	0.4	0.0945

Profiles as entered above.
Entry for COc1ccc(CC(=S)N2CCOCC2)cc1 : Ab BasE inh: 0.4; KSHV LANA nucl: 0.0945
Entry for CC(C)COc1cccc(C(=O)O)c1 : Ab BasE inh: -1.0; KSHV LANA nucl: ·
